# Compound activity deposited in PubChem BioAssay by National Center for Advancing Translational Sciences (NCATS).
# GLA inh pH 4.5: qHTS Assay for Inhibitors of Human alpha-Galactosidase at pH 4.5; Alpha-galactosidase A (Homo sapiens), P06280; purified enzyme, 4-MU-alpha-Gal fluorescence, pH 4.5; activity change, negative = inhibition, % at 105 µM; 230,000 tested, under 10 active; AID 1467, 2008; inconclusive = small, poorly fitted or top-dose-only inhibition, or a rising curve; inactive = flat fitted curve, though single readings scatter; no compound was filed as active;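 further: 0% = full activity with enzyme and -100% = basal without enzyme; dose as in the result columns while the protocol names 77 µM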
# Rango dissoc inh: qHTS Assay for Inhibitors of RanGTP induced Rango (Ran-regulated importin-beta cargo) - Importin beta complex dissociation; AID 540253, 2011; Snurportin-1 (Homo sapiens) + GTP-binding nuclear protein Ran (Homo sapiens) + Importin …; Biochemical FRET Rango-importin beta, RanGTP-induced dissociation; actives 0.071% (n = 340,000); Potency, µM (highest dose often 46.1 µM), for inactives: at the highest dose activity change, negative = inhibition; active means falling FRET ratio curve, often poorly fitted, with flat reads before Ran was added; inconclusive means other falling curves, or compound fluorescence or quenching; inactive means flat or rising ratio curve;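 further: potency means the concentration at half of the fitted maximal effect; % of control where 0% means no effect; nearly all actives have a fitted effect of over 45% in size; -100% = wells without RanGTP and RCC1; the record marks most hits as doubtful in a second field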
#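 Recombinant Rango FRET biosensor (EYFP–snurportin 1 IBB–cerulean CFP10) at 0.1 uM premixed with 0.25 uM importin beta in PBS, 1 mM DTT, 0.02% Tween-20, 0.1% BSA. Compound added 5 min; RanGTP-RCC1 (0.6 uM Ran, 2 mM GTP, 0.2 uM RCC1) then triggers release, read at 45 min.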
# Rango complex inh: qHTS Assay for Inhibitors of Rango (Ran-regulated importin-beta cargo) - Importin beta complex formation. Importin subunit beta-1 (Homo sapiens), Q14974. Rango CFP/YFP FRET sensor + importin beta, 45 min. Potency, µM (highest dose often 92.2 µM), for inactives: top-dose inhibition of complex formation. actives 0.031% (n = 340,000); active = rising FRET ratio curve, often small or poorly fitted; inconclusive = mostly compound fluorescence or quenching in the first reads; inactive = flat curves in all reads;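 further: potency means the concentration at half of the fitted maximal effect; 0% = DMSO wells and 100% = buffer wells lacking importin beta; nearly all actives have a fitted effect of over 15% in size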
# Target sequence (Q14974 whole entry, looked up): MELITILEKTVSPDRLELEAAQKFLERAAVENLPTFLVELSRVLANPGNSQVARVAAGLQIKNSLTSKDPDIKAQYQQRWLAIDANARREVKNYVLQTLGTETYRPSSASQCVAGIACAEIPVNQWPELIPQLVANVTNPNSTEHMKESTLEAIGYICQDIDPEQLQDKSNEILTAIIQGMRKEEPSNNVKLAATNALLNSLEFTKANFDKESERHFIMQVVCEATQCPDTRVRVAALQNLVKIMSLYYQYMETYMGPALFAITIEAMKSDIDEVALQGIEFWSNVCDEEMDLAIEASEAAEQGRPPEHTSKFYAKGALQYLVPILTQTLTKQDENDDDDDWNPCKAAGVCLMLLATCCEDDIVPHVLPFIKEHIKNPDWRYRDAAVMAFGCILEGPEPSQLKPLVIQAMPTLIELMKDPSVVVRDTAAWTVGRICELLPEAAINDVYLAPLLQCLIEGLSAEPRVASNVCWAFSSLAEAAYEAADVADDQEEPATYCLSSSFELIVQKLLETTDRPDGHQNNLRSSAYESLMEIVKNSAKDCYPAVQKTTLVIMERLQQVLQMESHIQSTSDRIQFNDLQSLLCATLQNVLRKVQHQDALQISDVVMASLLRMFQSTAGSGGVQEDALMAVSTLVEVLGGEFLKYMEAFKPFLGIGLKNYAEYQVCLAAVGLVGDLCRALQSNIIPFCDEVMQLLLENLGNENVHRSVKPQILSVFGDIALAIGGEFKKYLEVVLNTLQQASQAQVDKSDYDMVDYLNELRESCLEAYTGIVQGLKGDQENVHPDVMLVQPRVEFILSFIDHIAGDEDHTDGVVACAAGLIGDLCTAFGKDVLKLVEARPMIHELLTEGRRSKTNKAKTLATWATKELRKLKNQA
#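 FRET biosensor Rango (snurportin 1 IBB between N-terminal EYFP and C-terminal Cerulean), 50 nM in PBS/1 mM DTT/0.02% Tween-20/0.1% BSA, preincubated 5 min RT with compound; 0.125 microM importin beta added, 45 min RT, CFP/YFP FRET ratio read.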
# miR-21 FLuc: qHTS Assay for Modulators of miRNAs and/orActivators of miR-21. HeLa miR-21 FLuc reporter, luciferase, 48 h. Potency, µM (series often up to 38.3 µM), inactives show at the top dose reporter change, positive = more light. 340,000 tested, under 10 active; active = well fitted rising curve with a large enough effect; inconclusive = small, poorly fitted or top-dose-only effect; inactive = no such curve, though single readings can be large or run the other way;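 further: % of control where 0% means no effect; miR-21 action dims this reporter so a rising signal means less miR-21 action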
#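 HeLa miR-21-FLuc reporter line, endogenous miR-21; 2000 cells/well in DMEM/10% FBS; compound titration up to ~40uM final, 48 h, 37 degree Celsius; luciferase detection reagent, 15 min lysis, CCD luminescence.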
# Numbers without * were called inactive; ? = inconclusive; · = not tested or not shown. Not all compounds are listed; rates above refer to the full screens.
Rango dissoc inh,Rango complex inh,GLA inh pH 4.5,miR-21 FLuc,mol
16%,-0.6%,·,·,O=C(Cc1ccccc1)Nc1cccc(S(=O)(=O)N2CCCCCC2)c1
0%,-1.8%,9,-11%,COc1ccc(C)cc1NC(=O)CSc1nnc(-c2ccc(OC)c(OC)c2)n1N
26%,-2.7%,·,·,O=C(OCC(=O)N1CCN(c2cccc(Cl)c2)CC1)c1ccco1
-10%,-1.4%,·,·,COCCN(CC(=O)Nc1cccc(C)c1C)C(=O)c1oc2ccccc2c1C
-7%,1.2%,1,5%,CCO[C@H]1OC(C(=O)N2CCN(Cc3ccc4c(c3)OCO4)CC2)=C[C@@H](c2ccccc2)[C@@H]1CCCO
?,-0.5%,4,-2%,CCCCn1nnnc1NCc1ccc(N2CCCC2)cc1
1%,1.4%,2,?,CN(C)CCCN(C(=O)CCc1ccccc1)c1nc2ccc(Br)cc2s1
1%,1.5%,2,-62%,CC(C)c1nnc(NC(=O)COc2ccccc2[N+](=O)[O-])s1
7%,-1.6%,-20,0%,CCOC(=O)C1(Cc2cccc(OC)c2)CCCN(Cc2ccc(NC(C)=O)cc2)C1 (stereo unspecified)
-1%,-1.5%,·,-2%,CCC(C)(C)NC(=O)C(c1ccc(OC)cc1)N(C(=O)CCC(=O)Nc1cc(C)on1)c1ccc(F)cc1 (stereo unspecified)
1%,-1.9%,·,-6%,CSCC[C@H](NC(=O)Cc1ccc(Cl)cc1)C(=O)N1CCC2(CC1)NCCc1[nH]cnc12
22%,?,·,·,CON(C)C(=O)c1ccccc1N(C)C(=O)OC(C)(C)C
-9%,-0.2%,-8,-9%,COc1ccc(N2C(=O)C(=O)/C(=C(/O)c3ccc(C)cc3)C2c2cccnc2)cc1 (stereo unspecified)
-6%,1.8%,·,-2%,CN(Cc1nccn1C)C(=O)C1CCC(=O)N(CCc2ccc(Cl)cc2)C1 (stereo unspecified)
26%,-1.9%,1,-2%,COc1ccc(/C=C/C(=O)OCC(=O)c2c(N)n(C)c(=O)n(C)c2=O)cc1
1%,-0.3%,-4,-2%,NS(=O)(=O)c1cccc(NC(=O)COC(=O)Cc2ccc(Cl)cc2)c1
-1%,-2.5%,5,-3%,Cc1ccc(C(=O)NCC(=O)OCC(=O)c2c(N)n(C)c(=O)n(C)c2=O)s1
9%,0.4%,·,-18%,CSc1ccccc1OCc1cc(C(=O)N2CCN(c3ncccn3)CC2)no1
0%,-1.9%,5,-43%,CC(C)c1ccc(NC(=O)NC2CCCCC2)cc1
-4%,-3.1%,·,·,COc1cc(/C=C2\SC(=O)NC2=O)ccc1OCC(=O)N1CCOCC1
1%,0.0%,1,-3%,CS(=O)(=O)N1CCc2ccccc2C1
2%,?,·,-4%,COc1ccc(CNCc2ccc3c(c2)OCO3)c(OC)c1OC
1%,-3.2%,-22,-9%,CCCCNCCCOc1ccc(C)cc1Br
-2%,-1.1%,·,-3%,COc1ccc(S(=O)(=O)N2CCN(C(=O)CN3C(=O)NC4(CCCC4)C3=O)CC2)cc1
0%,1.4%,·,?,COc1ccc(OC2CCN(S(=O)(=O)c3cccc(F)c3)CC2)cc1
-27%,?,6,3%,OCCCNC(=S)Nc1ccc2nccnc2c1
-9%,0.5%,-17,16%,COc1ccc(NCC(=O)Nc2ccc(Cl)cc2C)c(OC)c1
-5%,0.3%,·,·,O=C(NCC(=O)N1CC=C(c2ccccc2)CC1)c1ccc(F)cc1
-10%,?,5,-1%,O=C(CSC1=Nc2ccccc2C2=NC(CC(=O)NCc3ccco3)C(=O)N12)NCC1CCCO1 (stereo unspecified)
-1%,-0.6%,·,-6%,O=c1oc2ccccc2n1Cc1ccccc1F
1%,-1.2%,·,-5%,c1ccc2c(N3CCOCC3)c3c(nc2c1)CCC3
0%,-2.6%,-20,-3%,Cc1nc([N+](=O)[O-])c(N2CCN(C)CC2)n1Cc1ccccc1
1%,-2.6%,2,-2%,CCCCn1cnc2c1c(=O)n(C)c(=O)n2C
10%,1.2%,-6,-3%,N#CC1(Cc2ccc([N+](=O)[O-])cc2)c2ccccc2C=CN1C(=O)c1ccccc1 (stereo unspecified)
-11%,-1.1%,·,·,COc1ccc2oc(N)nc2c1
8%,-3.1%,-5,-4%,O=C1CC(N2CCN(c3nc4ccccc4s3)CC2)C(=O)N1c1ccc(F)cc1 (stereo unspecified)
0%,1.5%,-4,-3%,COCCNC(=O)CN(C(=O)CCC(=O)Nc1ccccn1)c1ccc(F)cc1
-7%,0.2%,·,·,CCOC(=O)C1CCCN(C(=O)c2cc(-c3ccncc3)nc3ccccc23)C1 (stereo unspecified)
3%,-0.5%,·,·,CCC[C@@H](CN1CCC[C@H]1CN1C(N)=NC[C@H]1C(C)C)N1C[C@@H](Cc2ccccc2)N(CCCC2CCCC2)C1=N
-9%,2.9%,·,·,O=C(CNC(=O)c1ccc(Cl)cc1)OCN1C(=O)c2ccccc2C1=O

# Pulled one by one from the list above (three):
Rango dissoc inh,Rango complex inh,GLA inh pH 4.5,miR-21 FLuc,mol
-9%,2.9%,·,·,O=C(CNC(=O)c1ccc(Cl)cc1)OCN1C(=O)c2ccccc2C1=O
3%,-0.5%,·,·,CCC[C@@H](CN1CCC[C@H]1CN1C(N)=NC[C@H]1C(C)C)N1C[C@@H](Cc2ccccc2)N(CCCC2CCCC2)C1=N
0%,1.5%,-4,-3%,COCCNC(=O)CN(C(=O)CCC(=O)Nc1ccccn1)c1ccc(F)cc1

# Further results
Rango dissoc inh,Rango complex inh,GLA inh pH 4.5,miR-21 FLuc,mol
4%,-0.1%,1,-7%,COc1ccc(OC(=O)C2CC(=O)N(c3ccc(C)cc3)C2)cc1 (stereo unspecified)
-4%,0.9%,5,-47%,CCNC(=O)COC(=O)c1ccc(-c2nc3ccccc3s2)s1
0%,-1.6%,-2,?,O=C(Cn1ncc(Cl)c(Cl)c1=O)N1CCN(S(=O)(=O)c2ccc3ccccc3c2)CC1
12%,-2.0%,0,9%,Cc1ccc(NC(=O)c2c(-c3ccccc3)noc2C)nc1
-3%,1.0%,12,-10%,Cc1ccc(S(=O)(=O)CC2CSc3nnc(C)c(=O)n32)cc1 (stereo unspecified)
-6%,-0.4%,·,·,CCCN(CC1CC1)C(=S)NC(=O)c1ccccc1Br
-2%,0.5%,-4,-10%,O=C(c1ccc(Cl)nc1)N1CCc2ccccc2C1
-6%,0.6%,5,-7%,O=C(CN1C(=O)CCSc2ccccc21)Nc1ccc2c(c1)OCO2
9%,-0.9%,·,·,O=C1C=C(c2cc(F)ccc2F)C[C@@H](c2ccc(F)cc2)C1
16%,-0.8%,-6,-80%,Cc1ccc(OCCn2cnc3c(N)ncnc32)cc1
-1%,1.8%,·,4%,CC1CCN(C(=O)Cn2nnc(-c3ccc(N)cc3)n2)CC1
-3%,-3.6%,-10,-15%,Cc1cc(Cl)ccc1OCc1nc(-c2ccc(O)cc2)n[nH]1
-6%,-0.1%,4,-7%,CN(C)c1ccc(C(CC(=O)c2ccccc2)C2CCCCC2=O)cc1 (stereo unspecified)
-3%,2.3%,7,6%,COc1cccc(C(=O)NCc2cccnc2)c1
-5%,1.5%,?,-7%,Cc1c(C(=O)NCCc2ccc3c(c2)OCCO3)oc2ccccc12
9%,0.4%,3,-1%,CCC(C)(C(=O)NC1CCCC1)N(C(=O)CC1NC(=O)NC1=O)c1ccc(C)cc1 (stereo unspecified)
-20%,2.9%,-2,2%,O=C(NC1CCN(Cc2ccccc2)CC1)C1COc2ccccc2O1 (stereo unspecified)
-2%,2.8%,10,-9%,Cc1nccn1-c1ccc(C(F)(F)F)cc1NC=O
8%,-3.2%,-7,-3%,O=C(CCN1C(=O)c2ccccc2C1=O)Oc1ccc2ccccc2c1
-3%,0.3%,-2,-8%,CCOc1cc(C)c(S(=O)(=O)Nc2ccc(Cl)cn2)cc1C
-13%,1.1%,·,-11%,CN(C)/C=N/C1=C(C#N)C(c2ccc(Br)cc2)c2ccc3ccccc3c2O1 (stereo unspecified)
·,·,-9,-13%,Cn1cc(/C=C(\C#N)C(=O)Nc2ncc(Cc3cccc(Cl)c3)s2)c2ccccc21
-6%,-2.4%,1,0%,CC1CC(=O)N(c2ccc(NCCc3ccc(O)cc3)c([N+](=O)[O-])c2)C1=O (stereo unspecified)
-4%,-2.1%,-4,22%,Cc1ccc(C(=O)NCCSc2ccc(Cl)cc2)cc1S(=O)(=O)Nc1ccccc1
?,?,1,-2%,CN1CCc2c(C#N)c(N3CCCCC3)nc(NCc3ccccc3)c2C1
22%,4.3%,-2,-3%,COc1ccc(N2C(=O)CC(N3CCN(S(=O)(=O)c4c(F)cccc4F)CC3)C2=O)cc1OC (stereo unspecified)
-5%,1.1%,·,-1%,O=C(O)c1ccc(CNCc2cccc(Oc3ccccc3)c2)cc1
-5%,?,·,·,COc1ccc(CNC(=O)c2cc(C3CC3)nc3c2cnn3C(C)C)cc1
-1%,-3.2%,-4,-3%,CCn1cc(C(=O)OC)c(=O)c2ccc(C)nc21
-7%,0.1%,·,-2%,COc1ccc(CC(=O)N(C)CC(=O)Nc2ccccc2SC)cc1
4%,-1.6%,-6,-30%,O/N=C1/CC/C(=N\O)c2nn(-c3ccccc3)nc21
0%,-0.1%,-1,-26%,Cc1cccc(NC(=O)c2ccc(-c3ccccc3[N+](=O)[O-])o2)c1
3%,-4.7%,·,·,Cc1cccc(C)c1NC(=O)CNC(=O)C1CCCN(C(=O)c2ccc(Cl)cc2)C1 (stereo unspecified)
3%,2.9%,·,1%,CC(Oc1ccccc1F)C(=O)NNC(=O)c1ccc(F)c(S(=O)(=O)N2CCOCC2)c1 (stereo unspecified)
-7%,2.6%,0,-2%,CCCc1nnc(NC(=O)CCC(=O)N2CCN(S(=O)(=O)c3ccc(C)cc3)CC2)s1
-1%,-0.1%,6,1%,Cc1cc(=O)oc2cc(OCCSc3nnc(-c4ccccc4)o3)ccc12
-2%,-2.7%,·,·,CCCC(=O)NC1CCc2cc(OC)c(OC)c(OC)c2-c2ccc(OC)c(=O)cc21 (stereo unspecified)
2%,2.0%,-9,?,COc1ccc(/C=C(/NC(=O)c2ccccc2)c2nc3ccc(Cl)cc3[nH]2)cc1OC
·,·,-6,0%,O=C(NCCN1C(=O)S/C(=C\c2cccs2)C1=O)[C@H](Cc1ccccc1)N1C(=O)c2ccccc2C1=O
?,?,3,-10%,COc1ccc(C(=O)/C=C\c2ccc(NC(=O)c3cccs3)cc2)cc1

# Single records, as listed above.
# Cc1nccn1-c1ccc(C(F)(F)F)cc1NC=O as listed: Rango dissoc inh = -2%; Rango complex inh = 2.8%; GLA inh pH 4.5 = 10; miR-21 FLuc = -9%
# O=C(c1ccc(Cl)nc1)N1CCc2ccccc2C1 as listed: Rango dissoc inh = -2%; Rango complex inh = 0.5%; GLA inh pH 4.5 = -4; miR-21 FLuc = -10%

# (continued)
Rango dissoc inh,Rango complex inh,GLA inh pH 4.5,miR-21 FLuc,mol
9%,-2.3%,·,·,Cc1ccc(S(=O)(=O)N2CCCCC2)cc1NC(=O)c1cnccn1
32%,-4.1%,·,·,C=CCC[C@@H](Cc1ccc(F)cc1)C(=O)OC[C@@H](Cc1c[nH]c2ccccc12)NC(=O)[C@@H](CC=C)CC(=O)N[C@H](CO)Cc1ccccc1
0%,1.7%,-3,1%,CC1(C)C2CCC1(C)C(OC(=O)c1ccccc1C(=O)O)C2 (stereo unspecified)
-7%,-1.5%,·,-13%,CCCNC(=O)c1ccc(COc2ccc(CCC)cc2OC)o1
8%,5.3%,-5,-14%,C=CCOC(=O)C1=C(C)OC(N)=C(C#N)C1c1ccc(OC)c(CSc2ccccn2)c1 (stereo unspecified)
-3%,-2.3%,2,-2%,Cc1ccc(CN2CCN(Cc3c(C)nn(-c4ccc(F)cc4)c3C)CC2CCO)o1 (stereo unspecified)
